Rango-impB inh – prevents formation of the Rango-importin beta complex; Q14974; hit rate 0.031% among 340,000; Rango CFP/YFP FRET sensor + importin beta, 45 min; Potency, µM (highest dose often 92.2 µM), inactives show at the top dose inhibition of complex formation; active = rising FRET ratio curve, often small or poorly fitted; inconclusive = mostly compound fluorescence or quenching in the first reads; inactive = flat curves in all reads;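 also: potency is read from the fitted curve at half-maximal effect; 0% = DMSO wells and 100% = buffer wells lacking importin beta; nearly all actives have a fitted effect of over 15% in size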
Target sequence (Q14974 whole entry, looked up): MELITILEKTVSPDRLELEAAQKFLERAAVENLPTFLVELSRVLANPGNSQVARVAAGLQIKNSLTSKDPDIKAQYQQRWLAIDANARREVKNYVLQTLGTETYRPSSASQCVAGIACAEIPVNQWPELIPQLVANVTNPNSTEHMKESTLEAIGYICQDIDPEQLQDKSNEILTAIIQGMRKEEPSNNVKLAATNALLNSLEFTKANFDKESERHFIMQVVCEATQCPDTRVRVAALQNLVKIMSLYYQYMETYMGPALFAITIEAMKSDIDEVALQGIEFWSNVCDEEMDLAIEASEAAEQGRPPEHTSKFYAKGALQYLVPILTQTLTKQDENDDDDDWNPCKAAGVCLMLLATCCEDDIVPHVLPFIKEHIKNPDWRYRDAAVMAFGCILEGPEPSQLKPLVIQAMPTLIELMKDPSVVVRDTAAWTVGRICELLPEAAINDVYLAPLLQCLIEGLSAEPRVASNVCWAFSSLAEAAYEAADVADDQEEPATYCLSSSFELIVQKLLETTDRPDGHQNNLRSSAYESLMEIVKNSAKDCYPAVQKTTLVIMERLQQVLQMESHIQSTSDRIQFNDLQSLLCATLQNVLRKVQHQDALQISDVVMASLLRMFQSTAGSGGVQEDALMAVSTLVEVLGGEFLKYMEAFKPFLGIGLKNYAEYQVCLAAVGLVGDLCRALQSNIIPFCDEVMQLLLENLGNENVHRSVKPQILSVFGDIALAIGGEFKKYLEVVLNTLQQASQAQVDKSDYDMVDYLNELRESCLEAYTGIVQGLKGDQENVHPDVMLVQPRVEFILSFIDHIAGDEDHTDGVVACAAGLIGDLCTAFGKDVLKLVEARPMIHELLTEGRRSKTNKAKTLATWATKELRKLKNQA
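Inhibition scored from the CFP 486 nm/YFP 530 nm FRET ratio 45 min after adding 0.125 microM importin beta to 50 nM Rango biosensor preincubated 5 min with compound (room temperature, PBS with DTT, Tween-20, BSA). No-importin wells as positive control.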
miR-21 FLuc – raises the signal of a miR-21 reporter. HeLa miR-21 FLuc reporter, luciferase, 48 h. Potency, µM (top dose mostly 38.3 µM), inactives show at the top dose reporter change, positive = more light. 340,000 tested, under 10 active. AID 2288; active = well fitted rising curve with a large enough effect; inconclusive = small, poorly fitted or top-dose-only effect; inactive = no such curve, though single readings can be large or run the other way;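 also: % of control where 0% means no effect; miR-21 action dims this reporter so a rising signal means less miR-21 action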
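Compounds were titrated across several concentrations (up to approximately 40 uM) and incubated 48 hours with HeLa miR-21-FLuc reporter cells (miR-21 target sequence downstream of FLuc, endogenous miR-21). Readout was firefly luciferase luminescence after lytic detection reagent.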
Rango dissoc inh – prevents RanGTP from dissociating the Rango-importin beta complex; O95149+P62826; Biochemical FRET Rango-importin beta, RanGTP-induced dissociation; Potency, µM (top dose mostly 46.1 µM), for the others: top-dose activity change, negative = inhibition; hit rate 0.071% among 340,000; active means falling FRET ratio curve, often poorly fitted, with flat reads before Ran was added; inconclusive means other falling curves, or compound fluorescence or quenching; inactive means flat or rising ratio curve;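 also: potency is read from the fitted curve at half-maximal effect; % of control where 0% means no effect; nearly all actives have a fitted effect of over 45% in size; -100% = wells without RanGTP and RCC1; the record marks most hits as doubtful in a second field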
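Compounds preincubate 5 min with complex of recombinant Rango and importin beta in PBS with 1 mM DTT. Ran (0.6 uM) loaded with 2 mM GTP plus 0.2 uM RCC1 starts dissociation; FRET is recorded 45 min later.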
GLA inh pH 4.5 – alpha-galactosidase A (human) inhibition, pH 4.5; P06280; purified enzyme, 4-MU-alpha-Gal fluorescence, pH 4.5; 230,000 tested, under 10 active; activity change, negative = inhibition, % at 105 µM; inconclusive = small, poorly fitted or top-dose-only inhibition, or a rising curve; inactive = flat fitted curve, though single readings scatter; no compound was filed as active;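 also: 0% = full activity with enzyme and -100% = basal without enzyme; dose as in the result columns while the protocol names 77 µM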
* marks the source's active call; other numbers are inactive results; ? = inconclusive; / = no result given; & = joins results of further samples.

SMILES	Rango-impB inh	miR-21 FLuc	Rango dissoc inh	GLA inh pH 4.5
CCC(=NCCCN(CC)CC)c1c(O)n(-c2ccccc2)c(=O)[nH]c1=O	-0.4%	-3%	4%	4
CC(C)(C)c1nc(N2CCN(C(=O)c3ccco3)CC2)c2nnn(Cc3ccccc3Cl)c2n1	-0.1%	0%	6%	-2
Cc1cc(C=C2C(=O)N(C)C(=S)N(C)C2=O)c(C)n1-c1ccncc1	?	-2%	-23%	-12
CCCC1(CC(C)C)C(=O)NC(=S)NC1=O	1.7%	/	7%	/
Nc1ccc(S(=O)(=O)N2CCCCC2c2cccnc2)cc1 (stereo not drawn)	-2.5%	-15%	0%	-3
CC(=O)[C@@]1(O)CCC2C3CC=C4C[C@@H](O)CC[C@]4(C)C3CC[C@@]21C (stereo partly drawn)	-2.9%	/	1%	/
O=C1CC(c2ccc(O)cc2)Oc2cc(O)cc(O)c21 (stereo not drawn)	5.8%	-51%	6%	-9&-6
CN(C)C1=NC(N(C)C)=NP(N(C)C)(N(C)C)=N1	-2.2%	-4%	2%	2
COC(=O)C1=C(c2cc3ccccc3s2)C[C@@H]2CC[C@H]1N2C(=O)NCCO	-3.4%	/	26%	/
CC12CN3CCN(C1)CC(C)(C3)C2=NN	-0.3%	-18%	0%	2
COc1ccc(N2CCN(CCc3ccncc3)CC2)cc1	4.5%	-2%	19%	/
COC(=O)C1C2c3ccccc3OC1(C)N=c1s/c(=C/c3cn(C)nc3C)c(=O)n12 (stereo not drawn)	-1.2%	-12%	-7%	1
Cc1ccc(NC(=O)c2snnc2C)cc1Cl	-0.2%	-39%	-14%	0
CCC1(C(=O)c2ccccc2)C2c3ccccc3OC(=O)C21C(C)=O (stereo not drawn)	0.2%	2%	-16%	2
O=[N+]([O-])c1cnc2ccc3ccccc3c2c1	-4.1%	-14%	?	/
CCCc1cc(=O)oc2cc(OCC(=O)N3CCN(Cc4ccc5c(c4)OCO5)CC3)ccc12	-0.3%	11%	-2%	/
COC(=O)C1=C(c2c(C)noc2C)C[C@@H]2CC[C@H]1N2C(=O)NCCOc1ccccc1	-2.4%	/	14%	/
COC(=O)CC1NC2CCCCC2NC1=O (stereo not drawn)	-0.1%	-2%	-14%	0
COc1cccc(C(=O)C2CCCN(Cc3ccc4nonc4c3)C2)c1 (stereo not drawn)	-3.6%	0%	2%	0
O=C1NC(=S)NC(=O)C1=Cc1ccc(Br)s1	2.2%	5%	-8%	/
Cc1ccc(/C=C2/Sc3ccc(C(=O)N4CCC5(CC4)OCCO5)cc3NC2=O)cc1	?	2%	4%	/
CCOP(=O)(OCC)/C(C#N)=C/c1cc(OC)ccc1OC	?	1%	?	5
Cc1cc(-c2ccc(N)c(C)c2)ccc1N	-3.6%	/	0%	/
C[C@]12CC[C@H]3C(CCC4(O)CC(O)CC[C@]34C=O)C1=CC[C@H]2c1ccc(=O)oc1 (stereo partly drawn)	0.9%	?	7%	/
Cc1ccc(-n2nc(C)c(C3C(C#N)=C(N)Oc4c3c(=O)oc3ccccc43)c2Cl)cc1 (stereo not drawn)	/	0%	/	-3
O=C(Cc1ccccc1)N1CCN(Cc2cccnc2)CC1	2.2%	0%	3%	-1
CCC1C(c2cc(OC)c(OC)c(OC)c2)c2cc3c(cc2OC1N1CCCC1)OCO3 (stereo not drawn)	1.9%	/	-2%	/
c1ccc2c3c([nH]c2c1)CNCC3	0.4%	-5%	-8%	6
CCOC(=O)c1c(C)c(C(=O)N2CCC3(CC2)OCCO3)c(C)n1CC	2.5%	-7%	4%	3
O=C1CN(C(=O)COC(=O)Cc2ccccc2)c2ccccc2N1	0.6%	-1%	-2%	-3
CCCCCCOC(=O)c1ccccc1N	-3.7%	-14%	-10%	0
C=CCn1c(O)c(Cc2ccc(OCC)cc2)c(=O)[nH]c1=O	4.1%	-5%	45%	/
CC1SC2(CN3CCC2CC3)NC1=O (stereo not drawn)	1.5%	-2%	0%	2
O=C1NC(=O)C2C1C1(Cl)C(Cl)=C(Cl)C2(Cl)C1(Cl)Cl (stereo not drawn)	0.7%	/	-17%	/
N#Cc1ccc(Cn2cc(C=O)c3ccccc32)cc1	-4.2%	11%	-2%	/
O=C1NC(=O)C(CCOc2ccccc2)(CCc2ccccc2)C(=O)N1	2.3%	/	9%	/
O=[N+]([O-])c1ccc(NCCCN2CCOCC2)c2ncccc12	-0.4%	1%	8%	-6
C=C(C)C(Cc1c(OC)ccc(C(=O)/C=C/c2ccc(O)cc2)c1O)OO (stereo not drawn)	1.2%	/	2%	/
CN(C)C(=O)Oc1ccc(-c2cn3cc(Cl)ccc3n2)cc1	2.8%	-42%	8%	0
Cc1cc(C)c(NC2=NCCCS2)c(C)c1	-2.2%	-4%	6%	0
CCOP(=O)(OCC)c1cc(C)c(O)c(C(C)(C)C)c1	1.1%	-3%	-8%	0
CC(Cc1ccccc1)NC(N)=O (stereo not drawn)	-0.7%	4%	7%	0
CCC(=NCc1ccc2c(c1)OCO2)c1c(O)n(C)c(=O)n(C)c1=O	-1.1%	20%	3%	0
CC(C)c1ccc(NC(=O)CSc2nnc(OC(=O)N(C)C)n2C2CC2)cc1	-1.8%	0%	21%	/
CC(C)CN1CCN(Cc2ccc(F)cc2Cl)CC1CCO (stereo not drawn)	1.6%	-3%	6%	-7
CC(CC(C#N)(c1ccccc1)c1ccccc1)N1CCOCC1 (stereo not drawn)	-1.7%	/	24%	/
COc1ccc(-n2c(/C=C/c3cccc(F)c3)nc3ccccc3c2=O)c(OC)c1	0.2%	-1%	-3%	/
CCN1CCN(C(=O)COc2ccc3c(c2)C(=O)CC2(CCN(C(C)=O)CC2)O3)CC1	-2.1%	-1%	-7%	0
CCC(C)N1C(=O)/C(=C\c2ccc(N3CCCCCC3)cc2)C(=O)NC1=S (stereo not drawn)	?	1%	-14%	3
C=CCN1C(=O)/C(=C/c2cc(C)n(-c3ccccn3)c2C)C(=O)NC1=S	2.2%	4%	-6%	-1

Remaining list, next part
SMILES	Rango-impB inh	miR-21 FLuc	Rango dissoc inh	GLA inh pH 4.5
CCC(c1ccc(C)cc1)N1C(=O)C2C3CCC(O3)C2C1=O (stereo not drawn)	-2.6%	/	-24%	/
COC(=O)CC(=O)c1ccc2c(c1)OCO2	2.4%	/	-1%	/
Cc1ccc(N2C(=O)NC(=O)/C(=C\C=C\c3ccco3)C2=O)cc1C	?	?	-20%	-4
O=S(=O)(c1ccccc1)N1CCN2CCCC2C1 (stereo not drawn)	0.2%	-2%	3%	/
O=C(c1ccc(-c2ccccc2)cc1)C1CCCN(Cc2ccn[nH]2)C1 (stereo not drawn)	2.3%	-2%	8%	-2
CN(C)CCCN=Cc1c(O)n(CCc2ccc(F)cc2)c(=O)[nH]c1=O	5.0%	-2%	31%	4
CN1C(=O)N(C)C(=O)C2(Cc3cc([N+](=O)[O-])ccc3N(C)C2c2ccccc2)C1=O (stereo not drawn)	2.3%	-7%	-7%	1
Cc1cc(O)c2c3c(c(=O)oc2c1)CCC(C)C3 (stereo not drawn)	?	8%	3%	/
O=P1(NCCCn2cc[n+](Cc3nc4ccccc4[nH]3)c2)C=C(c2ccccc2)OC(c2ccccc2)=C1	2.2%	-2%	-12%	-2
C[C@]12CCC3C(CC[C@@H]4C[C@@H](O)CC[C@]34C)C1CC[C@@H]2O (stereo partly drawn)	-4.7%	/	-17%	/
CCOC(=O)CC1=C(C(=O)OCC)C2(C(=O)N1)C(C(=O)OC)=C(N)Oc1ccccc12 (stereo not drawn)	1.1%	-3%	4%	-13
COC(=O)C1=C(c2ccc(F)cc2F)C[C@@H]2CC[C@H]1N2C(=O)NCCOc1ccccc1Cl	-1.0%	/	15%	/
Cc1cccc(OCC(=O)N2CCN(Cc3ccc([N+](=O)[O-])cc3)CC2)c1	2.8%	-9%	1%	-8
CN1CCN(c2ccccc2N)CC1	0.2%	4%	-13%	9
COc1ccc(C2CN(C)CC2C(=O)c2ccc(C)cc2)cc1Cl (stereo not drawn)	0.8%	-2%	-3%	1
CC1=CC(O)C(O)C2(C)C1CC1OC(=O)C(O)C3C(C)C(O)C4(O)OCC13C42 (stereo not drawn)	2.0%	/	1%	/
CCC(C)NS(=O)(=O)c1ccc(OCC(=O)N2CCN(CC)CC2)cc1 (stereo not drawn)	0.5%	-15%	5%	3
COc1ccccc1CN1CCN(Cc2ccc(Cl)cc2)CC1	-3.7%	-6%	12%	1
O=Cc1cn(Cc2c(F)cccc2Cl)nc1-c1ccccc1	-2.0%	/	20%	/
OC1/C(=C/c2ccc(C(F)(F)F)cc2)N2CCC1CC2 (stereo not drawn)	0.2%	-38%	0%	3
CC(=O)OC1C2CCC1C(N1CCCCC1)CC2 (stereo not drawn)	-1.9%	-4%	1%	-12
O=C(Cn1cc(C(=O)c2ccccc2)c2ccccc21)NCc1ccco1	-2.5%	13%	11%	-27
C[C@]12CCC3C(CC[C@H]4C[C@H](O)CC[C@]34C)C1C[C@@H](O)[C@H]2O (stereo partly drawn)	3.6%	/	-1%	/
COCc1cc(OC(=O)N(C)C)nc2c1c(C)nn2C	3.7%	-6%	0%	1
COC(=O)C1=C(c2ccc(C(C)=O)cc2)C[C@@H]2CC[C@H]1N2C(=O)NCc1ccco1	0.3%	/	2%	/
CN1C(=O)NC(=O)/C(=C/c2ccc(C(=O)O)cc2)C1=O	-4.6%	2%	12%	8
COc1cc(/C=C/c2nc3ccccc3c(=O)n2-c2ccccc2O)ccc1O	?	16%	?	/
CCCC1COC(Cn2cncn2)(c2ccc(Cl)cc2Cl)O1 (stereo not drawn)	0.3%	-11%	6%	13
Cc1c(C(c2ccc(F)cc2)c2c(O)c3ccccc3oc2=O)c(=O)n(-c2ccccc2)n1C (stereo not drawn)	-3.6%	7%&-12%	-7%	-5
CC(=C1C(=O)c2ccccc2C1=O)N1CCN(CCN=Cc2c(O)n(C)c(=O)n(C)c2=O)CC1	-0.1%	-9%	-7%	6
C/C1=C\[C@@H](C)C/C=C/[C@H]2[C@@H]3O[C@]3(C)[C@@H](C)[C@H]3[C@H](Cc4c[nH]c5ccccc45)NC(=O)[C@]32C(=O)/C=C/C(=O)[C@@H]1O	?	?	-15%	-1
Cc1nc2cc(-c3cccc(F)c3)nn2c(C)c1CCC(=O)N1CCC2(CC1)OCCO2	-2.6%	19%	-5%	2
COC(=O)C1=C(c2ccccc2)C[C@@H]2CC[C@H]1N2C	1.4%	/	3%	/
CC(C)(C)C(=O)c1cn(Cc2ccccc2)c2ccccc12	1.2%	-8%	22%	9
COc1ccc2c(c1OC)CN1CCc3cc4c(cc3[C@H]1C2)OCO4	1.2%	/	-3%	2
O=C(COc1ccc(Cl)cc1)N(c1ccc(Cl)cc1)C1CN2CCC1CC2 (stereo not drawn)	4.8%	6%	-1%	-10
CCN(CC)S(=O)(=O)c1ccc(C(=O)NC2CN3CCC2CC3)cc1 (stereo not drawn)	3.4%	-2%	-8%	/
BrCCc1ccccc1	1.7%	/	3%	/
CC1CN=C(Nc2cccc3ccccc23)S1 (stereo not drawn)	-0.6%	-35%	1%	-1
O=C(N1CCCCCC1)N1CC1	0.1%	/	2%	/
COC(=O)C1=C(c2ccc(F)cc2F)C[C@@H]2CC[C@H]1N2C(=O)N1CCC(C)CC1	2.4%	/	-7%	/

Screening results deposited in PubChem BioAssay by National Center for Advancing Translational Sciences (NCATS).

A portion of the library, so the mix of outcomes need not match the whole.
